Vaccinia mCherry: qHTS for Stage-Specific Inhibitors of Vaccinia Orthopoxvirus: mCherry Reporter Primary qHTS. Vaccinia virus mCherry reporter infection, fluorescence; about a quarter of the inactives have no number. Potency, µM (top dose mostly 36.5 µM), for the others: at the highest dose activity change, negative = inhibition, actives largely listed as inhibitors. 0.63% of 310,000 active; active = well fitted inhibition curve with a large enough effect; inconclusive = small, poorly fitted or top-dose-only effect; inactive = no such curve, though single readings can be large or run the other way; tested in A549 cells; note: nearly all actives have a fitted effect of over 35% in size; inactives centre near -10
Vaccinia Venus: qHTS for Stage-Specific Inhibitors of Vaccinia Orthopoxvirus: Venus Reporter Primary qHTS; Vaccinia virus Venus reporter expression, fluorescence; Potency, µM (doses to about 36.5 µM), for the others: at the top dose activity change, negative = inhibition, most hits filed as inhibitors; 0.46% of 330,000 active; AID 720580, 2013; active means well fitted inhibition curve with a large enough effect; inconclusive means small, poorly fitted or top-dose-only effect; inactive means no such curve, though single readings can be large or run the other way; tested in A549 cells; note: nearly all actives have a fitted effect of over 30% in size; inactives centre near -10
* marks the source's active call; other numbers are inactive results; i = inactive; ? = inconclusive; / = not tested or not shown; [ ] = dose if it differs, or a comment. % is set by controls: 0 for no effect and ±100 for the full control effect; potency is the fitted concentration of half-maximal effect.

The opening four records, to show the layout:
SMILES | Vaccinia mCherry | Vaccinia Venus
CCN1C(=O)c2cccc3c(S(=O)(=O)Nc4ccccc4O)ccc1c23 | ? | -12%
CC(=O)c1ccc(S(=O)(=O)Nc2ccc(-c3ccc4nncn4n3)cc2)cc1 | -16% | -13%
C[C@@H]1[C@@H](Sc2ccccc2)CC(=O)O[C@@H]1c1ccc(-c2ccccc2)cc1 | ? | 2.5µM*
COc1cccc(-c2n[nH]c3c2CCC3)c1 | i | -14%

Main list, repeating the preview:
SMILES | Vaccinia mCherry | Vaccinia Venus
CCN1C(=O)c2cccc3c(S(=O)(=O)Nc4ccccc4O)ccc1c23 | ? | -12%
CC(=O)c1ccc(S(=O)(=O)Nc2ccc(-c3ccc4nncn4n3)cc2)cc1 | -16% | -13%
C[C@@H]1[C@@H](Sc2ccccc2)CC(=O)O[C@@H]1c1ccc(-c2ccccc2)cc1 | ? | 2.5µM*
COc1cccc(-c2n[nH]c3c2CCC3)c1 | i | -14%
CCCCN(C)S(=O)(=O)c1cc(-c2cc(C)no2)ccc1C | -21% | -23%
Cc1cc(C)nc(NC(=NCCc2c[nH]c3ccccc23)NC(=O)Nc2ccc(Cl)cc2)n1 | ? | ?
Cc1nn(C)cc1CN(C)C(=O)C1CCC(=O)N(CCc2cccc(F)c2)C1 (centres undefined) | i | -7%
CN(C)c1cccc(F)c1C(=O)NC(=O)Nc1ccc(Cl)cc1 | -8% | -17%
CC1CCCCC1NC(=O)COC(=O)c1ccc(N(C)C)cc1 (centres undefined) | -21% | -16%
COc1ccc(CNC(=O)[C@@H](NC(=O)C2CCN(S(=O)(=O)c3ccccc3)CC2)C(C)C)cc1 | -4% | -16%
CN(CC(=O)Nc1cccc(F)c1)C(=O)COc1cccc2c1OC(C)(C)C2 | i | -12%
Cc1cc(N2CCCC2)nc2ccc(NC(=S)NCCCN3CCC(C)CC3)cc12 | 14µM* | ?
Cc1ccc(NC(=O)c2ccc(-c3cc(Cl)ccc3Cl)o2)c(C)c1 | -19% | 3%
COc1ccc(S(=O)(=O)NCc2cccnc2)c2ccccc12 | i | -4%
CCOC(=O)C1=C(C)N(c2nonc2NC(C)=O)C(N)=C(C#N)C1c1ccccc1F (centres undefined) | -24% | -8%
S=C(NC1CCCCC1)N1CCOCCOCCN(C(=S)NC2CCCCC2)CCOCC1 | i | -13%
Cc1ccc(S(=O)(=O)N(C)C)cc1NC(=O)C1CCCN(C(=O)c2ccc(Cl)cc2)C1 (centres undefined) | -15% | -21%
O=C(CN(C(=O)c1csnn1)c1cccc2c1CCCC2)NCc1ccccc1 | i | -10%
CCOC(=O)c1ccc(N2C(=O)CC(Sc3nc(O)c(CC)c(=O)[nH]3)C2=O)cc1 (centres undefined) | / | 0%
Cc1cc(C)n2nc(SCC(=O)Nc3cccc(C(F)(F)F)c3)nc2n1 | -14% | -11%
O=C(N=c1nc2ccccn2s1)c1ccccc1 | -11% | -3%
Cn1nc(-c2ccc(Cl)cc2)cc1NC(=O)Nc1ccccc1 | i[7.34 µM] | -6%[7.34 µM]
O=C(Nc1cccc(-c2cccc(Cl)c2)c1)C1CCN(Cc2ccc(CO)o2)CC1 | ? | -19%
COc1ccc(/C=C(\NC(=O)c2ccccc2)C(=O)NC2CCS(=O)(=O)C2)cc1 (centres undefined) | -12% | -3%
COCCN(C(=O)COC(=O)CSc1ccccc1)c1c(N)n(Cc2ccccc2)c(=O)[nH]c1=O | -17% | -23%
C/C(=N/NC(=O)c1cc(-c2ccccc2)nc2c(Cl)cccc12)c1cccnc1 | -3% | -23%
Cc1ccc(CNC(=O)c2ccc(NC(=O)N3CCSc4ncccc43)cc2)cc1 | -6% | -7%
CCOC(=O)c1cnc(Nc2nc3ccccc3o2)nc1CSC(=S)N1CCCCC1 | ? | ?
N#Cc1nc(Cl)c(Cl)c(NN)c1Cl | -8% | -6%
c1ccc(-c2nnc(CN3CCCc4ccccc43)o2)cc1 | -13% | -6%
Cc1ccc(CNC(=O)CN(Cc2cccs2)C(=O)C2(C)CC(=O)N=C3C=CC=CN32)cc1 (centres undefined) | -8% | -5%
O=C1NC(=O)C(=Cc2ccccc2Oc2ccc(F)cc2)C(=O)N1 | -11% | -7%
O=C(Cn1c(=O)n(Cc2ccco2)c(=O)c2sc3ccccc3c21)Nc1ccccc1C(F)(F)F | ? | -23%
COC(=O)COc1ccc(=O)n(-c2ccccc2)n1 | -11% | -13%
O=CN1CCN(C(=O)c2ccccc2Cl)CC1 | -10% | -2%
O=C(NCc1cc(C(F)(F)F)cc(C(F)(F)F)c1)C1CC(c2cccc([N+](=O)[O-])c2)=NO1 (centres undefined) | -21% | -19%
N#C/C(=C\Nc1ccc2cn[nH]c2c1)c1nc(-c2ccccc2)cs1 | i | -13%
C=C1C(O)C[C@H]2C(=C)CCC3[C@H](OC(=O)[C@]3(O)CO)[C@@H]12 (some centres undefined) | i | -9%
Nc1ccc(N2CCN(Cc3ccccc3Cl)CC2)c(Cl)c1 | i | -20%
CCOC(=O)C1CCCc2c1[nH]c1c(C(=O)O)cccc21 (centres undefined) | -14% | -3%
COc1ccc(NC(=O)CCC(=O)c2cc(C)sc2C)cc1 | -19% | -19%
Cn1nnnc1SCCNCc1cccc2ccccc12 | -10% | -2%
CC(C)=CCC12Oc3cc(O)ccc3C1(O)Oc1cc3c(c(O)c1C2=O)C=CC(C)(C)O3 (centres undefined) | -12% | -3%
COc1ccc(-c2noc3c2-c2nc(-c4c(F)cccc4F)sc2CC3)cc1 | -3% | -16%
Clc1cccc(Nc2nc(-c3ccncc3)nc3ccccc23)c1 | 0% | -12%

Exported with two lines to a compound: three of the compounds above
Value order: Vaccinia mCherry	Vaccinia Venus
- CCN1C(=O)c2cccc3c(S(=O)(=O)Nc4ccccc4O)ccc1c23
  ?	-12%
- CC(=O)c1ccc(S(=O)(=O)Nc2ccc(-c3ccc4nncn4n3)cc2)cc1
  -16%	-13%
- C[C@@H]1[C@@H](Sc2ccccc2)CC(=O)O[C@@H]1c1ccc(-c2ccccc2)cc1
  ?	2.5µM*

(cont.)
SMILES | Vaccinia mCherry | Vaccinia Venus
C=CCNc1nc(Nc2ccccc2F)nc(OCC)n1 | -2% | -22%
N#CC1c2ccccc2-n2nncc2CN1S(=O)(=O)c1ccc(Cl)cc1 (centres undefined) | -11% | -7%
COc1ccc(NC(=O)c2nnn(Cc3nc(-c4cc(OC)c(OC)c(OC)c4)oc3C)c2C)cc1 | -20% | -22%
CCOC(=O)C1CN(S(=O)(=O)c2ccc(C)cc2)CCN1S(=O)(=O)c1ccc(C)cc1 (centres undefined) | -14% | -11%
CCN(CC(=O)NCc1cccs1)C(=O)c1cc(S(=O)(=O)N2CCOCC2)ccc1C | i | -14%
Nc1ccnn1Cc1ccc(Br)s1 | -18% | 1%
Cc1c(Cl)cccc1NC(=O)CCn1nc(C)c2c(C)n(-c3ccccc3)nc2c1=O | -16% | -6%
OCCOCCn1c(C(CO)Nc2nc(-c3ccccc3Br)cs2)nc2ccccc21 (centres undefined) | -21% | -21%
CCOC(=O)c1nnc(-c2ccccc2)nc1Sc1c(Cl)cccc1Cl | / | -26%
CCCCc1c(C)nc2c(-c3ccc(Cl)cc3)c(C)[nH]n2c1=O | 11µM* | ?
COc1cc(S(=O)(=O)Nc2ccc(C)cc2)ccc1NC(=O)c1ccncc1 | -8% | -22%
CCCOc1ccc(N2CC(C(=O)Nc3ccccn3)CC2=O)cc1 (centres undefined) | -14% | -15%
COc1ccc(NC(=O)C2CCN(S(=O)(=O)c3c(C)noc3/C=C/c3ccco3)CC2)cc1 | 1% | 2%
COc1ccc(C(=O)CCN2CCN(c3ccccc3F)CC2)cc1 | ? | -24%
CC(NC(=O)c1ccccc1NC(=O)CN1CCc2ccccc2C1)c1ccccc1 (centres undefined) | ? | -16%
O=C(Cn1ncc2c3ccccc3n(Cc3ccccc3F)c2c1=O)NCCCc1ccccc1 | -16% | -19%
CCCc1nc2ccccc2c(=O)n1CCc1ccccc1 | -24% | -23%
OB(O)c1ccc(B(O)O)cc1 | -2% | -13%
CC1=C(C#N)C(C)(C)C(C#N)=C(C)N1 | i | -6%
Cc1ccccc1CN1CCN(C(=O)c2ccco2)CC1 | -13% | -5%
CC(C)CC1C(=O)N(Cc2cn(Cc3ccco3)nn2)CCS(=O)(=O)N1Cc1ccc(-c2ccc(Cl)c(Cl)c2)cc1 (centres undefined) | -2% | ?
Cc1ccc(-n2c(SCC(=O)N3CCOCC3)nnc2-c2cccnc2)cc1C | -7% | -12%
CN1CCc2c(sc(NC(=O)C3CCCCC3)c2C(N)=O)C1 | -13% | -9%
C=CCNC(=S)NNC(=O)c1ccc(Br)o1 | -15% | -14%
COc1ccc(N(CC(=O)N/N=C/c2ccccc2OC)S(=O)(=O)c2ccccc2)cc1 | ? | 4%
CC(C)(C)OC(=O)C[C@@H]1C/C=C\C[C@H](CC(=O)N[C@@H](CO)Cc2ccccc2)C(=O)N[C@H](C(C)(C)C)COC1=O | i | -11%
COc1ccc(CNC(=O)CSCc2ccc(C)cc2)c(OC)c1 | -3% | -3%
COC(=O)c1ccc(/C=N/n2c(C)nc3ccccc3c2=O)cc1 | i | 3%
CCCCn1c(SCC(=O)c2ccc3c(c2)OCCO3)nnc1-c1ccoc1C | -16% | -22%
COc1ccccc1N1CCN(Cc2nc3ccccc3[nH]2)CC1 | 13% | 1%
Cc1ccc(C)c(C(=O)C(C)OC(=O)CN2C(=O)NC3(CC(C)CC(C)(C)C3)C2=O)c1 (centres undefined) | -20% | -17%
C=CCNC(=S)NNC(=O)COc1ccc(Cl)cc1Cl | -15% | -13%
CN(C)CCNC(=O)c1ccc2c(c1)NC(=O)C(CS(=O)(=O)Cc1cccc(Br)c1)N2 (centres undefined) | -14% | -8%
O=C(NC(=S)N1CCN(c2ccc(F)cc2)CC1)C12CC3CC(CC(C3)C1)C2 | -17% | -14%
Cc1ccc(-c2n[nH]c(=S)n2/N=C/c2cccs2)cc1 | i | -8%
CC(C)CCN1CCN(C2CCN(c3ccc4c(c3)OCO4)CC2)CC1CCO (centres undefined) | -10% | -20%
Cc1cc(C(=O)CN2C(=O)c3ccccc3S2(=O)=O)c(C)n1C(C)C | -10% | -13%
CC1(C)OC(=O)C2(Cc3cc([N+](=O)[O-])ccc3N3CCCCCC32)C(=O)O1 (centres undefined) | -22% | -18%
CC1CCN(C(=O)Cn2cc([N+](=O)[O-])ccc2=O)c2ccccc2S1 (centres undefined) | i | -7%
Cn1c(=O)cc(SCC(=O)NCCC2=CCCCC2)c2ccc(Cl)cc21 | ? | ?
CCOC(=O)c1c(C)oc2ncnc(N3CCN(c4ccccc4OC)CC3)c12 | -8% | -8%
COCCNc1ncnc2c1ncn2[C@H]1CN(Cc2ccc3c(c2)OCO3)C[C@@H](CO)O1 | -6% | 5%
CC(=O)c1ccc(C(=O)N2CCc3c([nH]c4ccccc34)C2c2ccccn2)s1 (centres undefined) | -14% | -10%
Cc1cc(NC(=O)c2n[nH]c(=O)c3ccccc23)ccc1Br | i | -6%
O=C(Nc1cc(C(F)(F)F)ccc1N1CCOCC1)c1n[nH]c(=O)c2ccccc12 | -9% | -8%

Next section (5 carried over from the part before).
SMILES | Vaccinia mCherry | Vaccinia Venus
CCOC(=O)c1c(C)oc2ncnc(N3CCN(c4ccccc4OC)CC3)c12 | -8% | -8%
COCCNc1ncnc2c1ncn2[C@H]1CN(Cc2ccc3c(c2)OCO3)C[C@@H](CO)O1 | -6% | 5%
CC(=O)c1ccc(C(=O)N2CCc3c([nH]c4ccccc34)C2c2ccccn2)s1 (centres undefined) | -14% | -10%
Cc1cc(NC(=O)c2n[nH]c(=O)c3ccccc23)ccc1Br | i | -6%
O=C(Nc1cc(C(F)(F)F)ccc1N1CCOCC1)c1n[nH]c(=O)c2ccccc12 | -9% | -8%
O=C(NCCC1=CCCCC1)c1cc2c(s1)CS(=O)(=O)C2 | -22% | -19%
CCOC(=O)C1CCN(C(=O)Cn2nc(CC)n3c(cc4occc43)c2=O)CC1 | -7% | 2%
CCN1CCN(C(=O)c2cc(S(=O)(=O)N3CC(C)CC(C)C3)ccc2Cl)CC1 (centres undefined) | -13% | -14%
O=C(COc1ccccc1Br)N1CCN(C(=O)c2cccs2)CC1 | -7% | -1%
Cc1ccc(C)c(CS(=O)(=O)c2cn(CC(=O)N(C(C)C)C(C)C)c3ccccc23)c1 | -3% | -6%
CNc1ncnc2c1cnn2-c1ccc(C)c(C)c1 | -16% | -8%
CCc1ccc(C(=O)COC(=O)c2nn(C)c(=O)c3ccccc23)cc1 | -8% | -15%
Cn1nc(C(F)(F)F)cc1Oc1ncc(C(F)(F)F)cc1Cl | -13% | -2%
O=C(NNC(=O)C1CC=CCC1C(=O)O)c1ccc(Cl)cc1 (centres undefined) | -5% | -6%
Cc1nc2ccc(C(=O)N3CCN(Cc4ccccc4)CC3)cc2[nH]1 | -20% | -13%
CCOC(=O)c1c(Cl)c(C)nn1-c1nc(OC)cc(OC)n1 | i | -7%
COc1ccccc1NC(=O)c1cccc(S(=O)(=O)N2CCCCCC2)c1 | -14% | -12%
CC(=O)C1=C(NC(=O)c2ccc(C(F)(F)F)cc2)C[C@@H]2[C@H]1C2(C)C | 14% | 4%
O=C(NCCO)c1cccc(-c2cccc3nncn23)c1 | 7% | -3%

One compound at a time (already shown). Order of screens: Vaccinia mCherry	Vaccinia Venus
CCOC(=O)c1c(Cl)c(C)nn1-c1nc(OC)cc(OC)n1 across the screens: i	-7%
Cc1nc2ccc(C(=O)N3CCN(Cc4ccccc4)CC3)cc2[nH]1 across the screens: -20%	-13%

Screens (PubChem)
